Screens as filed in PubChem BioAssay.
LASV entry inh – inhibitors of Lassa virus binding or entry into cells | Lassa virus pseudotyped entry inhibition, cell-based qHTS; control for the full effect not named in the record; many of its hits are not listed in these tables | Potency, µM (doses to about 49.2 µM), inactives show at the top dose activity change, negative = inhibition, usual class: inhibitors | 4.1% of 18,000 active | AID 720533; active = well fitted inhibition curve with a large enough effect; inconclusive = small, poorly fitted or top-dose-only effect; inactive = no such curve, though single readings can be large or run the other way; tested in HEK293 cells; note: luciferase read-out
MARV entry inh – blocks Marburg virus binding or cell entry. Marburg virus pseudotype entry/binding inhibition, cell-based; control for the full effect not named in the record; many of its hits are not listed in these tables. 6.5% of 18,000 active. Potency, µM (titrated, usually from 49.2 µM), for inactives: top-dose activity change, negative = inhibition, usual class: inhibitors. AID 720532; active means well fitted inhibition curve with a large enough effect; inconclusive means small, poorly fitted or top-dose-only effect; inactive means no such curve, though single readings can be large or run the other way; tested in HEK293 cells; note: luciferase read-out
Starred values were filed as active, the others as inactive; ? = inconclusive; nt = not tested or not shown; & = joins results of further samples; [ ] = another dose, or the depositor's remark. % is set by controls: 0 for no effect and ±100 for the full control effect; potency is the fitted concentration of half-maximal effect. Random draw from the library; any-hit rate near 8.2%.

Start of the data: the first 2 records, to show the layout:
SMILES	LASV entry inh	MARV entry inh
CC(=O)O[C@H]1CC[C@@]2(C)C(=CC[C@@H]3[C@@H]2CC[C@]2(C)C(c4cccnc4)=CC[C@@H]32)C1	-9%	?
O=C(c1ccc(F)cc1)C1CCN(CCCCc2ccccc2)CC1	-12%	16µM*

The list itself, repeating the preview:
SMILES	LASV entry inh	MARV entry inh
CC(=O)O[C@H]1CC[C@@]2(C)C(=CC[C@@H]3[C@@H]2CC[C@]2(C)C(c4cccnc4)=CC[C@@H]32)C1	-9%	?
O=C(c1ccc(F)cc1)C1CCN(CCCCc2ccccc2)CC1	-12%	16µM*
COC(=O)CC=C[C@H](C)[C@@H](OCc1ccccc1Br)C(C)C	nt	14%[8.59 µM]
NCCCCN=C(N)N	?	?
c1ccc2c3c([nH]c2c1)[C@@H]1[C@H]2CC[C@H]([C@H]4CCCN[C@H]42)N1CC3	-14%[17.8 µM]	?
OC[C@H]1O[C@@H](n2cnc3cncnc32)[C@H](O)[C@@H]1O	7.9µM*	3.2µM*
CC1=C(CCC(=O)O)c2cc3nc(cc4[nH]c(cc5[nH]c(cc1n2)c(C)c5C(C)O)c(C)c4C(C)O)C(C)=C3CCC(=O)O (stereo not given)	-14%	6%
CC(=O)[C@]1(O)Cc2c(O)c3c(c(O)c2[C@@H](O[C@H]2C[C@H](N)[C@H](O)[C@H](C)O2)C1)C(=O)c1c(O)cccc1C3=O	nt	0.056µM*
C#CCNC(=O)[C@H]1C=C(OC)C(=O)C[C@H](c2ccccc2)[C@H]1C	-18%[8.59 µM]	8%[8.59 µM]
COC(=O)C1CCN(Cc2ccc3c(c2)CN(C(=O)C2CCCN(c4ccccn4)C2)CCO3)CC1 (stereo not given)	-9%	?
COc1ccc2c3c(c(=O)oc2c1)[C@H]1O[C@](CCCCN2C(=O)c4ccccc4C2=O)(Cc2cc(OC)c(OC)cc21)O3	9%[8.59 µM]	?
C=C1C(=C/C=C2\CCC[C@]3(C)[C@@H]([C@H](C)/C=C/[C@H](C)C(C)C)CC[C@@H]23)C[C@@H](O)C[C@@H]1O	?	?
CC(C)C[C@@H](CC(=O)N[C@H](CC(=O)N[C@@H]1CCNC[C@H]1C(=O)N[C@H](CC(=O)N[C@@H](CCC(=O)O)CC(=O)O)CC(C)C)C(C)C)NC(=O)[C@@H]1CNCC[C@H]1N	-22%	2%
O=C(C=Cc1cccc([N+](=O)[O-])c1)c1ccccc1	nt	-27%[8.59 µM]
O=c1cc(-c2ccc(F)cc2F)[nH]c2ccccc12	-9%	7%
Cc1cccc(CNc2cc(-c3ccoc3)ncn2)c1	-5%	-17%
O=S1(=O)C[C@@H](N2CCC(Cc3ccccc3)CC2)[C@H](COCc2ccccc2)N1	-18%	11%
CC(=O)OC[C@H]1O[C@@H](O[C@H]2[C@H](O)[C@@H](OC(=O)c3ccccc3C(=O)O)[C@H](O)O[C@@H]2COC(C)=O)[C@H](O)[C@@H](OC(=O)c2ccccc2C(=O)O)[C@@H]1O	-15%	3.5µM*
Cc1c(OCC(F)(F)F)ccnc1CS(=O)c1nc2ccccc2[nH]1 (stereo not given)	63%[activator][17.8 µM]	30%&25%&23%[activator]
CCCCC#C[C@@H]1C=C[C@H](Oc2ccc(C(=O)OC)cc2)[C@@H](COC(=O)OCC)O1	6%[8.59 µM]	16%[8.59 µM]
CCN1C(=NCc2ccc(OC)cc2)NC(c2cccc(C(F)(F)F)c2)C(C(=O)OC)=C1C (stereo not given)	4%&-12%[8.59 µM]	13%&-21%[8.59 µM]
Clc1ccc2c(c1)N=C(N1CCNCC1)c1ccccc1N2	?	10µM*
COc1ccc(C(C)=O)c(O)c1	14%	19%
OC(c1cccnc1)c1ccc2c(c1)CN(Cc1ccc(-c3ccccc3Cl)o1)CCO2 (stereo not given)	0%	6%
COc1c(O)cc2c(=O)oc3c(OC)c(O)cc4c(=O)oc1c2c34	-1%	-12%
COC(=O)c1ccc(CN2C(=O)[C@@]3(CC(C)=CC[C@@H](COc4ccccc4)O3)c3ccccc32)cc1	-20%[8.59 µM]	9%[8.59 µM]
COc1cccc2ccc(CN3CCC4(CC3)c3ccccc3[C@@H](NC(=O)c3ccccc3)[C@@H]4O)nc12	-4%	?
CO[C@H]1[C@H](NC(=O)C(C)C)c2ccccc2C12CCN(Cc1c(C)nn(C)c1Cl)CC2	-10%	3%
C[C@H](O)C(N)C(=O)O (stereo not given in full)	-12%&-10%	-2%&13%
CC(C)=CCc1c(O)cc2oc(C)cc(=O)c2c1O	-12%	5%

Six entries out of the list, sorted by molar mass, high to low:
SMILES	LASV entry inh	MARV entry inh
CC(=O)OC[C@H]1O[C@@H](O[C@H]2[C@H](O)[C@@H](OC(=O)c3ccccc3C(=O)O)[C@H](O)O[C@@H]2COC(C)=O)[C@H](O)[C@@H](OC(=O)c2ccccc2C(=O)O)[C@@H]1O	-15%	3.5µM*
COC(=O)c1ccc(CN2C(=O)[C@@]3(CC(C)=CC[C@@H](COc4ccccc4)O3)c3ccccc32)cc1	-20%[8.59 µM]	9%[8.59 µM]
CO[C@H]1[C@H](NC(=O)C(C)C)c2ccccc2C12CCN(Cc1c(C)nn(C)c1Cl)CC2	-10%	3%
O=S1(=O)C[C@@H](N2CCC(Cc3ccccc3)CC2)[C@H](COCc2ccccc2)N1	-18%	11%
Clc1ccc2c(c1)N=C(N1CCNCC1)c1ccccc1N2	?	10µM*
Cc1cccc(CNc2cc(-c3ccoc3)ncn2)c1	-5%	-17%

Next part
SMILES	LASV entry inh	MARV entry inh
COC(=O)NC(CCc1ccccc1)C(C(C)=O)C(=O)OC (stereo not given)	2%	-12%
O=C(CCc1nc2ccccc2s1)N1CCOc2ccc(CN3CCc4sccc4C3)cc2C1	-21%	7%
CC(=O)c1ccc(OCc2ccccc2)c(C)c1O	3%[8.59 µM]	?
N[C@H](CCCCCP(=O)(O)O)C(=O)O	2%&-8%	14%&7%
COc1cc(=O)n2c(c1C(=O)NC(C)c1ccco1)CCN(Cc1ccccc1Cl)CC2 (stereo not given)	-11%	7%
CC(C)[C@@H](CC(=O)N[C@@H]1CCCC[C@H]1C(=O)N[C@H](CC(=O)N[C@@H](CCC(=O)O)CC(=O)O)Cc1ccccc1)NC(=O)C[C@H](Cc1ccccc1)NC(=O)[C@@H]1CCCC[C@H]1N	-6%	0%
Cc1c(C(=O)N(C)Cc2cscn2)sc2ncnc(NC[C@H]3CCc4ccccc4O3)c12	?	10%
CCN1C[C@]2(C)CCC(OC)[C@@]34C5C[C@@H]6CC[C@@](O)(C5C(=O)O6)[C@@H](C(O)C23)[C@@H]14 (stereo not given in full)	3%	2%
CCCCC[C@H](O)/C=C/[C@@H]1[C@@H](C/C=C\CCCC(=O)O)[C@H](O)C[C@H]1O	6%&-9%	8%&20%
CCN1C(=S)NC(c2cccc(F)c2)C(C(=O)OC)=C1C (stereo not given)	7%[8.59 µM]	20%[8.59 µM]
O=C1C=C2C=C[C@H]3C[C@@]2(O1)[C@H]1CCCCN31	?	?
Cc1cccc(/C=C/c2ccccc2)n1	36%[activator]	59%[activator]
C[C@H](CCC(=O)NCC(=O)O)[C@H]1CC[C@H]2[C@H]3[C@@H](C[C@@H](O)[C@]12C)[C@]1(C)CC[C@H](O)C[C@@H]1C[C@@H]3O	-1%[17.8 µM]	8%[17.8 µM]
Cc1[nH]cnc1C[C@H]1CCc2c(C)c3ccccc3n2C1=O	-13%	?
COc1ccc(NC(=O)C[C@H]2C(=O)N(c3ccccc3)C[C@@H]2C)cc1	10%	?
CC(=O)/C(C)=N\O	-3%	20%
CC(C)C[C@@H](CC(=O)N[C@@H](CCC(=O)O)CC(=O)O)NC(=O)[C@@H]1CNCC[C@H]1NC(=O)C[C@H](CCCN)NC(=O)C[C@H](Cc1ccccc1)NC(=O)[C@@H]1CCCC[C@H]1N	2%	-5%
CO[C@H]1[C@H](NC(=O)c2cccs2)c2ccccc2C12CCN(Cc1cccn1-c1cccnc1)CC2	0%	-7%
CC(C)C1=CC2=CC[C@@H]3[C@](C)(CO)CCC[C@]3(C)C2CC1 (stereo not given in full)	5%	-9%
CN(C)CCn1nnnc1SCC1=C(C(=O)O)N2C(=O)[C@@H](NC(=O)Cc3csc(N)n3)[C@H]2SC1	1%[17.8 µM]	-15%[17.8 µM]
COc1cccc(CN2C(=O)NC(C)(C3CCN(Cc4ccc(C)o4)CC3)C2=O)c1OC (stereo not given)	-3%	-22%
CCN(CC)CCOC(=O)c1cc(Cl)c(N)cc1OC	4%	6%
CCC1(CCC(C)C)C(=O)NC(=O)NC1=O	-5%	8%
C[C@]1(Cn2ccnn2)[C@H](C(=O)O)N2C(=O)C[C@H]2S1(=O)=O	1%	0%
CN[C@@H]1[C@@H](O)[C@@H](O[C@@H]2[C@H](O)[C@H](O[C@H]3OC(CN)=CC[C@H]3N)[C@@H](N)C[C@H]2N)OCC1(C)O (stereo not given in full)	-1%	1%
CNCC(=O)NCC(=O)N[C@@H](Cc1ccccc1)C(=O)N[C@@H](CC(C)C)C(=O)O	8%	25%
Cc1c(C(=O)c2cccc3ccccc23)c2cccc3c2n1[C@H](CN1CCOCC1)CO3	0%&-6%	7%&1%
C[C@H]1Cc2c(-c3ccccc3)nc3c(c2CO1)CN(C(=O)Nc1cccc(C#N)c1)CC3	-2%[8.59 µM]	-24%[8.59 µM]
C[C@H]1CNCCc2ccc(Cl)cc21	-5%	-7%
CCC(O)CNC(=O)c1cnn(-c2ncc3c(n2)-c2ccc(OC)cc2CC3)c1C1CC1 (stereo not given)	8%	0%
CCOC(=O)C1=C(c2ccccc2)c2cc(OC)ccc2OC1C(=O)OCC (stereo not given)	-28%	2%
CCCC[N+]12C3CC(C(CC)[C@H]1O)[C@@H]1C(O)C4(C[C@@H]12)c1ccccc1N(C)C34 (stereo not given in full)	-12%	?
Cc1ccc(C2CC(=O)Oc3cc(O)ccc32)cc1 (stereo not given)	-12%	8%
COc1ccc2[nH]cc(CCO)c2c1	4%	2%
O=S1(=O)N[C@H](Cc2ccccc2)COc2cc(N3CCCCC3)ccc21	19%	111%[activator]
C#CCCCON=C1C[C@@H](O)[C@H](O)[C@H]2[C@@H]3C(=O)N(c4ccc(F)cc4F)C(=O)[C@@H]3CC[C@@H]12	17%[8.59 µM]	-8%[8.59 µM]
O=P(O)(O)O[C@@H]1[C@H](O)[C@H](O)[C@@H](OP(=O)(O)O)[C@H](OP(=O)(O)O)[C@H]1O	-7%	3%
C[C@@]12CCc3occc3[C@H]1CC[C@@]13C[C@@H](CC[C@H]12)[C@@](O)(CO)C3	6%	0%
COC(=O)CCC(=O)OC1(C)C(=O)C=C2C=C(c3ccc(C#N)cc3)OC=C2C1=O (stereo not given)	1%&-16%	3%&-15%
COCCN(C)C(=O)c1cnn(-c2nccc(-c3cc(C)sc3C)n2)c1C	7%	37%[activator]
NC(=O)CCCCC1CCSS1 (stereo not given)	-8%	2%
C=C1CCC2C(CC2(C)C)C(=O)CCC1O (stereo not given)	-7%	1%
COc1cc2c(cc1OC)CC(=O)N(CCCN(C)C[C@H]1Cc3cc(OC)c(OC)cc31)CC2	-9%	-27%
O=C(O)CCC(=O)OC[C@@H](NC(=O)C(Cl)Cl)C(O)c1ccc([N+](=O)[O-])cc1 (stereo not given in full)	-3%	16%
CC1=CC23C(=O)C(C=C(CO)[C@@H](O)[C@]2(O)[C@H]1O)[C@H]1[C@@H](C[C@H]3C)C1(C)C (stereo not given in full)	13%	12%
CC(C)C[C@@H](CC(=O)N[C@@H](CCC(=O)O)CC(=O)O)NC(=O)[C@@H]1CNCC[C@H]1NC(=O)C[C@@H](NC(=O)C[C@H](Cc1ccccc1)NC(=O)[C@@H]1CCCC[C@H]1N)C(C)C	3%	-22%
O=C(Nc1ccccc1-c1ccc(Cl)cc1)c1cccnc1Cl	3%	-18%
CC(C)CC(N(C)C)C1(c2ccc(Cl)cc2)CCC1 (stereo not given)	-5%	17%
CCCOC(=O)Cc1ccc(OCC(=O)N(CC)CC)c(OC)c1	29%	15%
CCOC(=O)OC[C@H]1O[C@H](C#Cc2ccc(F)cc2F)C=C[C@H]1OC(=O)OCC	1%[8.59 µM]	-15%[8.59 µM]
CC(NNC(=O)c1ccccc1)c1ccccc1 (stereo not given)	55%[activator]	61%[activator]
O=C(O)COc1cccc(-c2ocnc2-c2nc(-c3ccccc3)c(-c3ccccc3)o2)c1	-13%	10%
CCO/C([O-])=N/c1c[n+](N2CCOCC2)no1	-7%[17.8 µM]	-4%[17.8 µM]
COC(=O)CCCC1=CC2=CC(=O)C(C)(OC(=O)c3cccs3)C(=O)C2=CN1CCc1ccccn1 (stereo not given)	12%[8.59 µM]	34%[activator][8.59 µM]
C=CC[N@@+]12CC[C@@]34c5ccccc5N5/C=C6/[C@H]7C[C@H]8[C@@]9(CC[N@@+]8(CC=C)C/C7=C/CO)c7ccccc7N(/C=C(/[C@@H](C[C@@H]31)/C(=C\CO)C2)[C@H]54)[C@@H]69	-2%[17.8 µM]	3%[17.8 µM]
CCOC(=O)[C@@H](C)N1[C@H](C)[C@H](c2ccccc2)Oc2cc(Br)ccc2S1(=O)=O	14µM*	?
COC(=O)[C@H]1[C@@H](c2cccc(C(F)(F)F)c2)NC(=O)N(Cc2ccccc2)[C@@H]1C	-27%[8.59 µM]	25%[8.59 µM]
CC(C)=CCc1c(O)cc(C)oc1=O	5%	20%
O=C(Cn1cc(COc2ccc3ccc(=O)oc3c2)nn1)c1ccc(O)cc1	1%	21%
Cc1cccc([C@H]2[C@@H]3C=CCC[C@@H]3C(=O)N2Cc2ccccc2)c1	-22%	-9%
CC(C)[C@@H]1NC(=O)[C@@H](Cc2ccccc2)NC(=O)[C@H](CC(=O)O)NC(=O)CNC(=O)[C@H](CCCN=C(N)N)NC1=O	-19%	-14%
